Assay outcomes deposited in PubChem by Broad Institute.
T cruzi repl: inhibitors of intracellular T. cruzi growth, primary screen, luminescence, NIH3T3 host cells. T. cruzi beta-gal in NIH3T3, 90 h. inhibition, % (concentration not given with the values). actives 1.4% (n = 300,000). AID 1885, 2009;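 active means mean inhibition across valid replicates above about 55%, limit read from the data; inconclusive means mean below that limit but half or more replicates reach it; inactive means mean below it, under half of replicates reach it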;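 further: signal also drops with host cell toxicity which is not excluded here; 0% = plate median of DMSO wells and 100% = zero luminescence signal; higher percent means less beta-gal luminescence so fewer parasites; stock transfer was 50 nL into about 50 µL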
Calb FLC: C. albicans growth inhibition with fluconazole, primary screen, CaCi-2 strain, Alamar Blue fluorescence; growth inhibition, % (test concentration not listed); actives 0.57% (n = 300,000); C. albicans CaCi-2 (fluconazole-resistant clinical isolate) + fluconazole, 48 h;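 active means most replicates above 75%; inconclusive means exactly half above 75%; inactive means most below 75%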;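 further: all wells also contain fluconazole at 8 µg/ml as a sub-toxic cotreatment; 0% = median of DMSO wells and 100% = median of geldanamycin control wells; wells of about 8 µL received 7.5 nL stock; the first replicate is given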
AF4-AF9 inh: inhibitors of AF4 peptide binding to AF9, primary screen, biochemical, AlphaScreen, biotin-AF4 peptide, FLAG-AF9, single point | Protein AF-9 (Homo sapiens), P42568 | inhibition, % at 10 µM | actives 0.47% (n = 350,000) | AID 651704, 2012;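 active means every replicate reaching a set inhibition limit, whatever the replicate mean, cut at about 25% in these data; inconclusive means mean inhibition reaches that limit but some replicates miss it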;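 further: 0% = plate neutral control median and 100% = total signal loss; the record names both 10 and 1 µM as test concentration; the first replicate is given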
Target sequence (P42568 whole entry, looked up): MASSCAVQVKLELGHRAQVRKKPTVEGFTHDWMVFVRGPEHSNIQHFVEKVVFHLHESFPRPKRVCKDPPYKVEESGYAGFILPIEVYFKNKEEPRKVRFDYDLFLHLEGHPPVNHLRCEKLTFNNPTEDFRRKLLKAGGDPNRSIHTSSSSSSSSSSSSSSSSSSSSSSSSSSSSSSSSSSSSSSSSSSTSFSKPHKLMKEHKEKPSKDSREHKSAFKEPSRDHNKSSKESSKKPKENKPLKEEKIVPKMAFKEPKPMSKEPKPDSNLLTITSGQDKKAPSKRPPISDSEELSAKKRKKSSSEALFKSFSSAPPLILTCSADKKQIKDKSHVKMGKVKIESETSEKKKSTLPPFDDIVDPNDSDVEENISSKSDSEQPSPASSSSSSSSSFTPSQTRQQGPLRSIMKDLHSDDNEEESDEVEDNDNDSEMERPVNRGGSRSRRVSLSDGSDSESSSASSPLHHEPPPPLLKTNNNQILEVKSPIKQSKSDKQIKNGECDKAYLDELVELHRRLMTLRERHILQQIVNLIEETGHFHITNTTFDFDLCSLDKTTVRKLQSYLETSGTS
ALR inh: inhibitors of human ALR sulfhydryl oxidase, primary screen, biochemical, H2O2 detection, HRP-luminol luminescence, single point; FAD-linked sulfhydryl oxidase ALR (Homo sapiens), P55789; purified ALR, DTT oxidation; inhibition, % (concentration not given with the values); actives 3.8% (n = 290,000);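 active means mean and each replicate at 75% or more; inconclusive means only one of the two met; inactive means neither met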;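 further: stock transfer was 7.5 nL into about 7.5 µL; 0% = neutral wells and 100% = wells with inactivated enzyme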
Target sequence (P55789 whole entry, looked up): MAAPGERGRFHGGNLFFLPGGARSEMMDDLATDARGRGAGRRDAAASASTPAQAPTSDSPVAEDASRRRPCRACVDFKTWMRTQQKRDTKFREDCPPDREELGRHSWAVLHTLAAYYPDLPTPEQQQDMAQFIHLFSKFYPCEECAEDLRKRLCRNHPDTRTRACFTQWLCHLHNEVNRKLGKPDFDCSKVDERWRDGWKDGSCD
RanGTP-Imp inh: inhibitors of RanGTP-importin-beta interaction, primary screen, biochemical, FRET, CFP-Ran, YFP-importin-beta, homogeneous. Ran GTPase (GTP-bound) - importin-beta complex. actives 1.1% (n = 300,000). cell-free CFP-Ran/YFP-importin-beta FRET ratio. inhibition, % (no concentration beside the values);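 active means most replicates above 15%; inconclusive means exactly half above 15%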;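 further: 0% = DMSO wells and 100% = Ran loaded with GDP instead of GTP; wells of about 40 µL received 100 nL stock; the first replicate is given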
FGF22 binding: binders of human FGF22 protein, primary screen, FGF22 synaptogenesis inhibitor project, biophysical, thermal shift, single point; actives 1.5% (n = 340,000); AID 651658, 2012; calls only at 9.99 µM; recombinant FGF22 thermal shift, SYPRO orange fluorescence; percent of sucrose octasulfate shift, DMSO zero; Fibroblast growth factor 22 (Homo sapiens), Q9HCT0;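 active means melting point raised past a set limit in the mean and every replicate; inconclusive means no clear call; three in four hits are not shown here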
Target sequence (Q9HCT0 whole entry, looked up): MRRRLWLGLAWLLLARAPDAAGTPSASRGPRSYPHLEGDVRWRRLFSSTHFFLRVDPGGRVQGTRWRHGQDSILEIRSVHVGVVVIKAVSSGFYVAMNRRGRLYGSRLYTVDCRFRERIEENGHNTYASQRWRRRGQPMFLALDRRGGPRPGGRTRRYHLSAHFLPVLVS
rRNA inh HTS: reduced GFP signal of wild-type E. coli, primary screen, bacterial rRNA inhibitor project, GFP/RFP fluorescence, OD600, single point; GFP signal change (wild-type ribosome), % (no concentration beside the values); E. coli WT GFP vs humanized-ribosome RFP mutants, 24 h; active compounds read low; DMSO median 0, no signal -100; actives 1.6% (n = 350,000);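 active means significant combined selectivity score with lowered wild-type GFP, culture density cut under 30%, mutant RFP and density less affected; inactive means any of these conditions unmet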; further: one replicate is shown; some compounds called inactive have numbers as strong as hits
Beta apoptosis: inhibitors of cytokine-induced beta cell apoptosis, primary screen, luminescence; INS-1E cytokine-induced death, ATP luminescence, 48 h; percent of positive-control rescue, neutral wells zero; protection from apoptosis, % (test concentration not listed); actives 0.8% (n = 300,000); AID 435005, 2010;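 active means all replicates at 75% or more, or half of them and the mean; inconclusive means half reach 75% but not the mean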;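 further: 0% = cytokine-treated negative control wells and 100% = positive control rescue; higher means more ATP so stronger rescue from cytokine killing; wells of about 40 µL received 100 nL stock; the first replicate is given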
rRNA inh HTS OD600: recorded beside rRNA inh HTS, whose call it bears; OD600 change, %; measured here: OD600 growth;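 optical density of the mix in the first replicate; 0 = DMSO median and -100 = no signal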
rRNA inh HTS RFP: recorded beside rRNA inh HTS, whose call it bears; RFP signal change, %; measured here: RFP humanized mutant strains;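 first replicate; 0 = DMSO median and -100 = no signal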
Active calls of the source: *; i = inactive; ? = inconclusive; / = not tested or not shown; + = active, no number; & = joins results of further samples. Some of the compounds tested; rates above refer to the full screens.

SMILES	T cruzi repl	Calb FLC	AF4-AF9 inh	ALR inh	RanGTP-Imp inh	FGF22 binding	rRNA inh HTS	rRNA inh HTS OD600	rRNA inh HTS RFP	Beta apoptosis
Cc1cc(NC(=O)c2c(Cl)cnn2C)no1	-4	-1	/	0	1.4	/	/	/	/	-3
O=C(O)c1ccc(N/N=C/c2ccc(C(F)(F)F)cc2)cc1	3	10	5.0	/	-1.3	/	-13	-11	-5.6	-7
CC1CN(c2cc(=O)n(Cc3ccc(F)cc3)c(=O)[nH]2)CC(C)O1 (stereo not drawn)	-9	-3	2.3	/	8.4	i	7	14	3.4	-3
CCC(=O)NC(=S)Nc1ccc(OC)cc1OC	-12	1	/	12	-3.0	/	/	/	/	-4
O=C(CSC1=NS(=O)(=O)c2cc(Cl)ccc2N1)c1ccc(Cl)cc1	-2	4	-1.1	/	4.8	i	1	10	4.7	-3
COc1ccc(-c2ccc3oc(-c4ccsc4)c(-c4ccc(OC)cc4)c3c2)cc1	7	7	-2.3	1	-0.6	i	12	9	1.4	/
CC(C)(C)N1C(=O)[C@H]2[C@@H](c3ccc(Br)cc3)N3C(=O)N(c4cccc(Br)c4)C(=O)[C@@]3(Cc3ccccc3)[C@H]2C1=O	58*	-11	/	/	-1.9	/	/	/	/	1
S=C(NCC1CCCO1)N1CCN(c2nc(-c3ccccc3)cs2)CC1 (stereo not drawn)	4	3	4.5	2	2.2	/	-20	-18	13	15
Cc1ccc(Oc2cc(NC(=O)CCCn3nc(C)c([N+](=O)[O-])c3C)cc([N+](=O)[O-])c2)cc1	51	19	4.9	-1	7.3	i	4	11	-1.7	6
CCn1cc(C(=O)NC2CCCCC2)c(=O)c2ccc(C)nc21	26	4	/	-4	-1.1	/	/	/	/	4
C=CCNC(=S)NNC(=O)C(CCCC)CC(O)COCC(C)C (stereo not drawn)	-1	-8	-2.9	-2	4.3	i	20	4	-2.7	1
Cc1cccc(C(=O)Nc2ccc(C(=O)N/N=C/c3cccnc3)cc2)c1	-3	3	1.3	-2	3.9	i	-6	-1	-0.6	-7
O=[N+]([O-])c1ccc(Cl)cc1Sc1cccc2cccnc12	10	-4	/	-10	3.4	/	/	/	/	-3
Oc1ccc(/C=N/Nc2nc(-c3ccc(Cl)cc3)cc(C(F)(F)F)n2)cc1	16	-4	17	65	0.0	i	-23*	2.5*	-8.5*	-3
CCC(C)Sc1nc(O)c(Cc2ccccc2)c(=O)[nH]1 (stereo not drawn)	-9	-1	/	31	1.1	/	/	/	/	4
CC(=O)n1cc([C@@H]2C=C(C(=O)NCc3ccccc3)O[C@H](OCCCCO)C2)c2ccccc21	17	7	-1.2&-1.9	-6	0.0	i	-5	-7	26	/
Cc1ccc(C)c(NC(=O)Nc2ccc3c(c2)OCO3)c1	0	0	-2.2	2	3.8	i	/	/	/	-1
O=C(CC(c1ccccc1)c1cc(Br)ccc1O)NCCN1CCOCC1 (stereo not drawn)	-16	2	/	/	2.3	/	/	/	/	0
C[C@H]1CCC[C@]2(C)C[C@H]3OC(=O)C(CN4CCCCCC4)[C@H]3C=C12 (stereo partly drawn)	-14	3	4.3	-3	-1.1	i	10	5	1.0	-64
N#Cc1cc2c(nc1SCC(=O)N1CCCCC1)CCCC2	6	-2	/	-2	-2.0	/	/	/	/	-3

3 entries from above, arranged by their value in RanGTP-Imp inh, high to low:
| mol | RanGTP-Imp inh |
| --- | --- |
| C=CCNC(=S)NNC(=O)C(CCCC)CC(O)COCC(C)C (stereo not drawn) | 4.3 |
| CCC(C)Sc1nc(O)c(Cc2ccccc2)c(=O)[nH]1 (stereo not drawn) | 1.1 |
| N#Cc1cc2c(nc1SCC(=O)N1CCCCC1)CCCC2 | -2.0 |

Next results
SMILES	T cruzi repl	Calb FLC	AF4-AF9 inh	ALR inh	RanGTP-Imp inh	FGF22 binding	rRNA inh HTS	rRNA inh HTS OD600	rRNA inh HTS RFP	Beta apoptosis
CCN(CC)c1ccc(C2C3CCCCC3(O)CCN2CC(=O)Nc2ccccc2)cc1 (stereo not drawn)	40	2	/	97*	-2.3	/	/	/	/	-5
CCOC(=O)C1(Cc2cccc(OC)c2)CCN(Cc2ccccc2)CC1	10	-23	3.2	-8	?	/	-9	-8	1.4	-9
Cc1cccc2c3nc4ccccc4nc3n(C)c12	5	16	-5.2	-51	-1.2	i	7	16	2.1	8
O=c1cc(-c2ccccc2)cc(-c2ccccc2)n1CCO	-8	3	2.5	-10	-4.6	i	-3	-13	14	-7
CSc1nc2ccc(NC(=O)C3=NN(c4ccccc4)C(=O)CC3)cc2s1	-11	10	7.2	-36	0.8	i	-21	-21	-4.9	-5
O=C(c1cc2ccccc2o1)N(Cc1nnc(-c2ccccc2Cl)o1)C1CC1	19	/	-14	39	0.0	i	-27	-54	6.5	-2
O=C1CS/C(=N\N=C\c2ccccc2Cl)N1CC1CC1	/	0	-3.2	-14	0.3	i	8	-18	-3.1	0
O=C(Cn1nc(-c2cccs2)ccc1=O)Nc1ccc(Br)cc1	12	-3	1.0	-10	0.9	i	2	-21	2.1	-2
CC(=O)N1c2ccc(S(=O)(=O)NCC3CCC(C(=O)N4CCCCC4)CC3)cc2CC1C (stereo not drawn)	-1	2	-1.3	-3	-3.4	i	5	6	3.3	-4
CCOC(=O)N1CCC(N(CCOC)C(=O)Nc2ccc(C)c(C)c2)CC1	5	1	/	-5	-2.2	/	/	/	/	0
COc1ccc(S(=O)(=O)N(CC(=O)N2CCOCC2)c2cc(Cl)ccc2OC)cc1OC	-17	10	/	/	-0.8	/	3	6	-2.2	/
COc1ccccc1N1CCN(C(=O)CCCn2c(=O)[nH]c3ccsc3c2=O)CC1	-7	9	-5.7	57	?	i	-1	0	-3.8	/
Cc1c(S(=O)(=O)c2ccccn2)c(N)n(Cc2ccccc2)c1C	5	2	6.4	0	-3.4	i	25	10	12	-1
O=C(O)CN1C(=O)/C(=C\c2cc(Br)ccc2OCc2ccc(Cl)cc2Cl)SC1=S	1	20	/	12	?	/	-8	-15	6.5	-4
COc1ccc(CCNC(=O)c2ccc(CNS(=O)(=O)c3ccc(C(C)(C)C)cc3)cc2)cc1OC	4	3	/	/	4.9	/	/	/	/	9
COc1ccccc1C(=O)NC(=S)Nc1ccc(N2CCN(C(=O)c3ccco3)CC2)cc1	20	2	6.2	-4	2.4	i	-9	-11	0.7	3
CC(NCc1ccc(OCC(N)=O)cc1)C12CC3CC(CC(C3)C1)C2 (stereo not drawn)	-7	4	-9.8	/	?	i	10	9	3.8	/
O=C(C/C=N/OCc1c(Cl)cccc1Cl)c1cnc(-c2ccccc2)s1	16	-2	/	-28	0.6	/	/	/	/	6
N[C@@H](Cc1ccccc1)C(=O)N1CCC(C(=O)NCC(=O)Nc2ccc(F)cc2)CC1	17	-10	5.0	-31	0.6	i	6	15	1.9	-6
C/C(Cc1ccccc1)=N\NC(=O)CNC(=O)c1ccc(C(C)(C)C)cc1	-4	-12	-1.7	0	7.7	i	-3	-7	0.3	-4
Cc1ccccc1C(=O)N1CCC(C(=O)NC2CCCCC2)CC1	-6	13	0.0	-6	-1.1	i	5	17	0.4	3
O=C(CCC(=O)N1CCOc2ccc(Cl)cc21)NCCCN1CCN(c2ccccc2F)CC1	-5	3	2.4	18	-2.8	i	-9	-26	7.2	8
O=C(NC1CCCCC1)c1cccnc1C(=O)O	-9	-9	/	-1	-2.7	/	/	/	/	2
Cc1nn(Cc2ccccc2Cl)c(C)c1NC(=O)c1nc2ncccn2n1	-10	2	/	-20	-1.9	/	18	11	2.4	-2
Cc1ccc(CN(C)CC(=O)Nc2cccc([N+](=O)[O-])c2)o1	5	1	4.5	2	?	i	15	13	2.1	0
O=S(=O)(Nc1cccc(-c2ccc3nncn3n2)c1)c1cccc(F)c1	-2	0	0.5	-2	1.0	i	5	8	0.1	2
CCCCc1nc2sc3c(c2c(=O)[nH]1)CC(C)(C)OC3	-7	0	-2.3	-2	-0.1	i	9	1	-0.2	-1
N#C/C(=C/c1cc(Br)cs1)C(=O)NCC1CCCO1 (stereo not drawn)	-2	-5	/	-12	0.2	/	/	/	/	-5
COc1ccc(C)cc1NC(=O)c1ccc(OCc2c(C)noc2C)cc1	/	/	-1.5	-3	/	i	-9	-15	3.6	5
Cc1ccc(NC(=O)c2ccccc2NC(=O)c2cccs2)cc1	16	-6	0.4	-2	-1.5	i	6	5	-0.6	12
COc1ccc(Nc2nc(C(=O)NCCCN3CCOCC3)cs2)cc1	6	?	/	83*	1.1	/	/	/	/	-2
Cc1ccc(NC(=O)c2cc3cccc([N+](=O)[O-])c3[nH]2)cc1	15	11	-3.2	-16	5.1	i	20	20	0.0	-9
O=S(=O)(Nc1ccccc1OC(F)F)c1ccc(S(=O)(=O)N2CCCC2)cc1	/	/	-2.2	1	/	+	-13	-21	-0.7	5
CCN(CC)C(=O)COc1ccc(/C(C)=N/NC(=O)c2ccccc2O)cc1	6	-14	0.4	-4	-2.5	i	-14	-13	-3.7	10
CCc1nnc(NC(=O)C2CCN(C(=O)NC3CCCCC3)CC2)s1	-8	5	/	-7	-1.1	/	/	/	/	-3
CCN(CC)S(=O)(=O)c1ccc2c(c1)N(CC(=O)NCc1ccco1)C(=O)CO2	-1	6	-5.3	-1	1.3	i	7	0	1.2	-2
Cc1cc(C)cc(N2CC(C)(C)C2=O)c1	-2	4	-0.8	3	-0.9	i	33	7	-0.5	-8
Cc1cc(Nc2ccc(Cl)cc2)nc(-c2ccccc2O)n1	37	-3	1.4	-12	-0.9	i	10	11	-0.2	-5
NS(=O)(=O)c1ccc(CCNC/C=C/c2ccccc2)cc1	-4	1	0.5	-8	4.3	i	5	0	3.3	-5
COc1cc(/C=C/C(=O)c2c(O)ccc3c(C)cc(=O)oc23)ccc1O	-32	1	/	32	-0.6	/	/	/	/	-2
CSc1sc(C(=O)NN)c2c1C1(CCC2)SCCS1	3	6	-0.7	1	2.3	i	/	/	/	5
Cc1ccc(S(=O)(=O)c2ccc(Cl)cc2)cc1S(N)(=O)=O	6	-1	2.9	/	0.6	i	2	-10	2.4	-2
O=C(CCC(=O)N1CCN(S(=O)(=O)c2ccccc2)CC1)c1cccs1	-2	?	/	/	?	/	/	/	/	-24
O=C(c1ccco1)N1CCN(C(c2ccc(F)cc2)c2nnnn2CC2CCCO2)CC1 (stereo not drawn)	-4	7	/	8	-1.2	/	/	/	/	-6
Cc1ccccc1C1NC(=O)Cc2ccccc21 (stereo not drawn)	0	-10	/	7	-0.8	/	/	/	/	2
